# gsp agonist – activates gsp, the McCune-Albright syndrome mutation; gsp mutant cells, cAMP HTRF, 30 min; control for the full effect not named in the record; Potency, µM (titrated, usually from 76.9 µM), for the others: at the top dose activation (cAMP increase), most hits filed as activators; 340,000 compounds, 0.13% hits; active = well fitted activation curve with a large enough effect; inconclusive = small, poorly fitted or top-dose-only effect, or another doubt; inactive = no such curve, though single readings can be large or run the other way; cell line not stated here;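 also: phosphodiesterase inhibitor Ro 20-1724 added with compounds to block cAMP breakdown; potency is read from the fitted curve at half-maximal effect; nearly all actives have a fitted effect of over 60% in size; about a fifth of the inactives were tested at one dose only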
#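 Cells in DMEM/10% FBS with G418 were pretreated with compounds in DMSO plus […] (300 uM stock) for 30 min at 37C. cAMP was measured by HTRF (cAMP-d2 plus anti-cAMP antibody-K) after 30 min at room temperature.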
# Menin-MLL FL inh – displaces fluorescein MLL peptide from human menin; Fluorescence polarization, fluorescein-MLL peptide displacement from menin; FP activity change, % at 61.4 µM; 290,000 tested, under 10 active; AID 1766; inconclusive = falling polarisation curve, or a change in total fluorescence; inactive = total fluorescence flat and polarisation flat or rising; no compound was filed as active; the % refers to the polarisation; negative = inhibition;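 also: % of control where 0% means no effect; inhibitors lower the polarisation; unlabelled MLL peptide was the positive control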
# TRPV1 PAM – potentiators of human vanilloid receptor 1 (TRPV1); Q8NER1; TRPV1-expressing cells, Fluo-8 calcium influx, capsaicin EC20 potentiation; host cell line not named in the record; control for the full effect not named in the record; potentiation, % at 8.33 µM; 320,000 compounds, 0.02% hits; AID 540277; active means potentiation above 80%; inconclusive means 30% to 80%; inactive means below 30%; also: 0% is about no effect
# Target sequence (Q8NER1 whole entry, looked up): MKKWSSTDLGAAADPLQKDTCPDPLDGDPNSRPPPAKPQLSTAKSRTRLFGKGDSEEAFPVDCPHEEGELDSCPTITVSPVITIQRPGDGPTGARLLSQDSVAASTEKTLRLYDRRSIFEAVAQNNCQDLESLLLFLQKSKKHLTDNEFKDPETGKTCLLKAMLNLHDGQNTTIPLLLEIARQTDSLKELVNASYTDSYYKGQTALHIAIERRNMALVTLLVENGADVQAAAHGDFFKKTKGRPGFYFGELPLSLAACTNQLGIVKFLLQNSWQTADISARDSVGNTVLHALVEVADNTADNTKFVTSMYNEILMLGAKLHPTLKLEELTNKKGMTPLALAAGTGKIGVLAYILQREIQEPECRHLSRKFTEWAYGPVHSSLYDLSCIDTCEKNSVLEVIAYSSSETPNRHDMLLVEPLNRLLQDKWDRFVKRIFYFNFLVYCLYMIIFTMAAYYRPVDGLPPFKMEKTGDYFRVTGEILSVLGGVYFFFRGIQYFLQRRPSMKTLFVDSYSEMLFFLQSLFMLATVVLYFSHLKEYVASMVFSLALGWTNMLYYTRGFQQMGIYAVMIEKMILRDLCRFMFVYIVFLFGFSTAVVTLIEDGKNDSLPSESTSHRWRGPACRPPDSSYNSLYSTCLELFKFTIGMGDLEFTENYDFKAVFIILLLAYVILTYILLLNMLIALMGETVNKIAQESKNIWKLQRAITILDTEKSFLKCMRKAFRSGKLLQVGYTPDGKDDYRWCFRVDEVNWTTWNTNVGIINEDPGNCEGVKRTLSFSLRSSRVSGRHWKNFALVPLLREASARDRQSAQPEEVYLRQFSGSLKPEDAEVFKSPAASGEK
#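 TRPV1-expressing cells were cultured overnight at 35.5C and loaded with Fluo-8 calcium dye for 40 to 90 min at room temperature. After a 10 s baseline, compound was added and calcium influx was read kinetically for 3 min (ex 480/em 520 nm).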
# TRPML1 inh – inhibitors of human TRPML1 channel. Q9GZU1. TRPML1-inducible cells, Ca2+ dye fluorescence, FDSS; hits give low values; inhibition of EC80 agonist-evoked calcium signal. activity change, negative = inhibition, % (no concentration beside the values). 390,000 compounds, 0.02% hits. AID 624415; in the data active means activity change below about -50%; inconclusive means about -30% to -50%; inactive means above about -30%;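 also: stimulus is agonist 54-4 at its EC80 concentration; % is scaled to controls: 0 for no effect and ±100 for the full control effect; compound concentration not given in the record; the text of the record puts the active cut at -80%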
#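 TRPML1-DL cells, Tet-induced overnight (~16 h, 37 °C) at 1,500 cells/well, were loaded with Ca8 no-wash dye plus quencher for 45-90 min at room temperature. Compounds were pinned during FDSS kinetic reading; agonist 54-4 at EC80 (4 uM final) then added.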
# Sfp inh – blocks B. subtilis Sfp PPTase activity; Q9F4F7; Biochemical Sfp PPTase activity, qHTS; Potency, µM, inactives show max response, negative = inhibition, most hits filed as inhibitors; 310,000 compounds, 3.5% hits; AID 1490; active = well fitted inhibition curve with a large enough effect; inconclusive = small, poorly fitted or top-dose-only effect, or another doubt; inactive = no such curve, though single readings can be large or run the other way;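 also: the enzyme is Sfp with the accession as filed and its product quenches rhodamine fluorescence; potency is read from the fitted curve at half-maximal effect; 0% = enzyme reaction without inhibitor and -100% = no enzyme wells; top concentration of the series not given in the record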
#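 Sfp 15 nM + cpd, 15 min RT; start w/ rhodamine-CoA 5 uM, BHQ-2-YbbR 12.5 uM (final); 50 mM Hepes pH 7.6, 10 mM MgCl2, 0.01% NP-40, 0.01% BSA; read 525/598 nm at 0 and 30 min.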
# ClpP mod – qHTS Assay for Activators of ClpP; Potency, µM (series often up to 57.5 µM), for inactives: at the top dose activity change, negative = active; 340,000 compounds, 1.9% hits; ATP-dependent Clp protease proteolytic subunit (Bacillus subtilis (strain 168)), P80244; purified B. subtilis ClpP, FRET peptide cleavage, 20 min; active = well fitted falling curve with a large enough effect; inconclusive = small, poorly fitted or top-dose-only effect; inactive = no such curve, though single readings can be large or run the other way; also: potency is read from the fitted curve at half-maximal effect; the source files actives as falling curves though it sought activators and does not explain the sign; nearly all actives have a fitted effect of over 65% in size; many hits overshoot -100%
# Target sequence (P80244 whole entry, looked up): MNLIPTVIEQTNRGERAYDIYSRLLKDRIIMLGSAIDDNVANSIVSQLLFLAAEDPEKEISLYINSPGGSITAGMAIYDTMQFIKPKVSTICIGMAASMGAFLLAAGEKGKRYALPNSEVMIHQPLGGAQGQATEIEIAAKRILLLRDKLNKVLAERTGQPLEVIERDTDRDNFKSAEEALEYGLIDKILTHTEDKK
#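 Purified B. subtilis ClpP, 10 microg/mL final in Tris/HCl pH8 with KCl, BSA, glycerol and Tween-20, cleaved an Abz/nitrotyrosine-quenched decapeptide. Fluorescence (ex 320, em 430) was read at 0 and 20 min at room temperature. Delta was normalized to 5.8 microM ADEP and DMSO/no-enzyme controls.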
# gsp antagonist – gsp mutant antagonism. Potency, µM (doses to about 76.9 µM), for inactives: at the top dose activity change, negative = inhibition, usual class: inhibitors. gsp-mutant cells, cAMP HTRF, 30 min; control for the full effect not named in the record. 340,000 compounds, 0.4% hits; active = falling curve of any shape with a large fitted effect; inconclusive = falling curve, mostly with a smaller effect; inactive = flat or rising curve; cell line not stated here;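 also: intracellular cAMP measured with PDE inhibitor Ro 20-1724 present during compound exposure; potency is read from the fitted curve at half-maximal effect; % is scaled to controls: 0 for no effect and ±100 for the full control effect; nearly all actives have a fitted effect of over 65% in size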
#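 G418-selected cells were plated in DMEM/10% FBS for 16-24 h at 37C, then treated with compounds plus the PDE inhibitor […] (300 uM solution added) for 30 min at 37C. Intracellular cAMP was measured by HTRF after 30 min lysis at room temperature.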
# An asterisk follows results filed as active; ? = inconclusive; / = no result given; [ ] = another dose, or the depositor's remark.
SMILES,gsp agonist,Menin-MLL FL inh,TRPV1 PAM,TRPML1 inh,Sfp inh,ClpP mod,gsp antagonist
CCOc1cc(/C=N/NC(=O)c2cc(C)n(-c3ccc(F)cc3)c2C)ccc1O,?,-1.8,-13,0,-6%,-15%,-7%
Cc1ccc(Oc2ccccc2)c(NC=O)c1,0%,0.4,6,-10,2%,0.8%,4%
CCS(=O)(=O)Nc1cccc(C2=NN(S(=O)(=O)CC)C(c3cccs3)C2)c1 (stereo not drawn),16%,/,29,-19,19%,1.5%,-9%
CC(C)CCN1CCN=C1Nc1ccccc1,3%,-3.0,-8,-8,1%,1.1%,15%
CC(=O)Nc1ccc(N(C(=O)c2cnccn2)C(C(=O)NC2CCCCC2)c2ccc(O)cc2)cc1 (stereo not drawn),-18%,4.5,5,31,6%,-0.4%,-12%
O=C(Nc1cccc2ccccc12)N1N=CCC1c1ccccc1 (stereo not drawn),-1%[15.4 µM],-0.1,-3,8,-18%,/,8%
Cc1noc(C)c1S(=O)(=O)Nc1ccc(C(=O)N2CCN(c3cccc(Cl)c3)CC2)cc1,-27%,-0.9,0,5,3%,0.3%,?
O=C(c1cnn(C(=O)c2ccccc2)c1)c1ccccc1O,?,1.4,-7,-12,0%,42%,13%
CCCCN(C(=O)COC(=O)c1ccccc1)c1c(N)n(CCC)c(=O)[nH]c1=O,2%,/,/,-12,/,/,9%
Cc1ccc(/C=C/c2nc3sc(C(=O)O)c(C)c3c(=O)[nH]2)cc1[N+](=O)[O-],?,-29,2,-11,79µM*,/,11%
Cc1nnc2n1N=C(c1ccc(OC(F)F)cc1)C(C)S2 (stereo not drawn),22%,0.6,3,9,10%,/,10%
CCCCc1c(O)nc(SCC(=O)N2CCOCC2)n(-c2ccc(OC)cc2)c1=O,18%,-3.7,3,13,10%,/,1%

# Overlap with the part before: two entries; new compounds follow.
SMILES,gsp agonist,Menin-MLL FL inh,TRPV1 PAM,TRPML1 inh,Sfp inh,ClpP mod,gsp antagonist
Cc1nnc2n1N=C(c1ccc(OC(F)F)cc1)C(C)S2 (stereo not drawn),22%,0.6,3,9,10%,/,10%
CCCCc1c(O)nc(SCC(=O)N2CCOCC2)n(-c2ccc(OC)cc2)c1=O,18%,-3.7,3,13,10%,/,1%
Nc1nc2nn(-c3ccccc3)nc2c(=O)[nH]1,?,0.4,7,-1,-3%,3.9%,5%
COc1ccc(CCNS(=O)(=O)c2ccc3c(c2)NC(=O)CO3)cc1OC,-59%[inhibitor],2.7,8,2,7%,/,1%
O=C(Nc1ccccc1)c1cc(-n2cnnc2)ccc1Cl,-19%,-0.6,13,?,22%,-2.7%,-9%
Cc1ccc(C(=O)C2C(=O)c3ccccc3C2=O)cc1,10%,4.1,8,5,16%,-5.1%,-19%
O=C(Oc1ccccc1)c1cccnc1Oc1ccccc1,0%,-3.1,-18,15,11%,-0.9%,2%
CC(NCc1ccc(F)cc1)C(=O)NC1CCCCC1 (stereo not drawn),6%[15.4 µM],-0.5,-7,-7,1%,/,12%
CN(c1ccccc1)S(=O)(=O)c1ccc(NC(=S)NC(=O)C2CC2)cc1,-24%,5.1,-9,19,6%,-5.0%,-6%
Cc1cccc(Nc2c(-c3ccc(O)cc3)nc3ncccn23)c1,20%,-1.1,6,-8,8%,1.0%,-14%
COc1ccccc1NC(=O)c1ccc(NC(=O)COC(=O)c2ccc(O)cc2)cc1,-26%,/,-5,10,/,13%,-18%
O=C(O)CCCNC(=O)Nc1ccccc1,-17%,-1.1,3,17,7%,0.1%,9%
Cc1nc2cc(C(=O)O)ccc2n1C1CCCCC1,6%,1.1,-1,-2,13%,0.3%,-9%
Cc1c(Cl)cccc1NC(=S)N1CCc2ccccc2C1,-44%,-1.5,-11,-12,0%,-2.3%,-3%
COc1ccc(OCC(=O)O/N=C(\N)c2ccc(OC)cc2)cc1,-32%[inhibitor],2.5,15,-12,-9%,/,-16%
COc1cc(CNC(C)(C)CO)cc(Br)c1OCc1ccc(Cl)cc1Cl,7%,2.1,0,3,-27%,-2.8%,-5%
O=C(CNS(=O)(=O)c1ccc(F)cc1)N1CCN(c2ccc(F)cc2)CC1,12%,0.8,-11,3,0%,-3.1%,-12%
CC(=O)OCC(=O)Nc1c(C)cc(C)cc1C,1%,-0.9,10,13,-26%,-1.1%,13%
CCOc1ccccc1OCC(=O)NNC(=O)Cn1cnc2c1c(=O)n(C)c(=O)n2C,-5%[15.4 µM],-0.8,?,-12,16%,0.4%,12%
Cc1ccc(S(=O)(=O)N2CCN=C2SC(C)c2ccccc2)cc1 (stereo not drawn),18%[15.4 µM],/,-1,59,4%,-15%,-22%
CNc1nc2c(-c3ccc(Cl)cc3)nnn2c2ccccc12,?,0.1,-2,8,3%,?,7%
O=C(CNC(=O)c1ccc(F)cc1)c1ccccc1,-33%[inhibitor],2.7,-29,/,?,0.3%,0%
O=C(CSc1ccccc1)NC1=NCCS1,0%[15.4 µM],-0.3,16,-4,11%,/,-1%
Cc1ccc(-c2cn(CCC(=O)O)c(-c3ccc(Cl)nc3)n2)cc1,6%,/,?,-2,/,-0.7%,3%
NS(=O)(=O)c1ccc(NC(=O)Nc2ccc(S(N)(=O)=O)cc2)cc1,4%[15.4 µM],-0.8,18,9,5%,/,-10%
CCC(c1nnnn1Cc1ccccc1)N1CCN(C(=O)c2ccco2)CC1 (stereo not drawn),-19%,-1.8,-8,7,-6%,-2.3%,-6%
Cc1ccsc1C(=O)N1CC(=O)Nc2ccccc21,9%,4.9,8,28,11%,-1.5%,-6%
COc1cc(C2c3c(oc4c(C)cc(C)cc4c3=O)C(=O)N2Cc2cccnc2)ccc1O (stereo not drawn),18%,/,/,-16,/,-1.3%,5%
Cc1nc2c(C(=O)NCCc3ccccc3)c[nH]n2c(=O)c1Cl,4%,3.3,8,-16,20%,?,?
Cc1cc(C)c2c(N)c3cccc(C)c3nc2n1,10%[15.4 µM],0.7,4,7,5%,0.8%,-4%
COc1cccc(NC(=O)CSc2nnc(NC(=O)c3ccco3)s2)c1,-1%,/,10,-7,-12%,-6.7%,-13%
Cc1nn(-c2ccccc2Cl)c(Cl)c1/C=N/Nc1cccc(C(=O)O)c1,3%,2.9,5,-3,-9%,-8.0%,-11%
CC(=O)Nc1ccc(S(=O)(=O)Nc2nc3ccccc3nc2-n2ccc(=NC(=O)c3ccccc3)cc2)cc1,6%[15.4 µM],?,28,3,15%,0.6%,-1%
CC(=O)NS(=O)(=O)c1ccc(NS(=O)(=O)c2ccc(F)cc2)cc1,-36%[inhibitor],1.2,-1,-17,12%,-0.9%,-5%
COc1ccc(S(=O)(=O)NCCN2CCOCC2)cc1[N+](=O)[O-],-1%,-6.2,15,-3,-5%,/,-2%
Cc1nn(-c2ccc([N+](=O)[O-])cc2)c(N)c1-c1ccccc1,-11%[15.4 µM],11,-58,6,4%,1.3%,-15%
CCCN(CC(=O)Nc1ccccc1C)C(=O)c1ccc2[nH]c3c(c2c1)CC(C)CC3 (stereo not drawn),30%,/,8,10,/,-12%,-29%
CCOC(=O)N1CCN(C(=O)CN(c2ccc(C)cc2)S(=O)(=O)c2c(C)noc2C)CC1,-7%,1.0,-6,10,-1%,1.7%,6%
O=C(NCc1ccccc1Cl)c1ccc(CS(=O)(=O)c2ccccc2)o1,-15%,1.1,1,11,15%,/,2%
O=S(=O)(NCc1csc(-c2ccccc2)n1)c1ccc(Cl)s1,-44%[inhibitor],3.9,-5,-8,-27%,-6.6%,-19%
O=C(NCCS(=O)(=O)N1CCN(c2ccccc2)CC1)C12CC3CC(CC(C3)C1)C2,-67%[inhibitor],/,/,-5,/,0.1%,/
Cc1ccc(CNC(=O)CN(C(=O)C2(C)CC(=O)N=C3C=CC=CN32)c2ccccc2)cc1 (stereo not drawn),-8%[15.4 µM],3.2,5,-2,24%,-0.4%,22%
COc1ccc(NC(=O)C(c2ccc(OC)cc2)N(C)C(=O)CNC(C)=O)cc1 (stereo not drawn),-22%,-0.4,-2,-2,1%,0.5%,0%
Cc1cccc2nc3c(nc12)CCCC3,0%,0.8,19,21,18%,-1.5%,7%
N/C(=N/O)C(c1ccccc1)c1ccccc1,-32%[inhibitor],0.2,2,-13,-22%,-1.3%,-4%
O=C(NCc1ccccc1Cl)C1CCCN(S(=O)(=O)c2cccc3nonc23)C1 (stereo not drawn),-50%[inhibitor],-0.8,-14,-13,-2%,/,-23%
CC(C)CN(C(=O)CSc1nc2ccccc2c(=O)[nH]1)c1c(N)n(CC(C)C)c(=O)[nH]c1=O,-32%[inhibitor],/,/,14,/,0.3%,0%
Cc1cc(=O)[nH]c(SCC(=O)c2ccc(F)c(C)c2)n1,-1%[15.4 µM],-5.8,-7,-15,6%,2.0%,8%
O=C(c1c(F)c(F)c(F)c(F)c1F)N1CCN(c2cccc(C(F)(F)F)c2)CC1,3%,5.7,1,41,-18%,-0.8%,5%
O=C1CC(=O)N(c2ccccc2)N1c1ccccc1,-20%,5.9,2,-6,-6%,-1.5%,4%
C=CCn1c(-c2cccc(S(=O)(=O)N(CC)CC)c2)n[nH]c1=S,?,-0.2,4,9,?,/,-6%
CCOC(=O)C(=CNc1ncccc1C)C(=O)OCC,-64%[inhibitor],5.9,?,51,5%,-3.0%,-17%
O=C(NCc1ccco1)C1CCC(N2C(=O)c3ccccc3C2=O)CC1 (stereo not drawn),4%,-0.5,-9,8,3%,0.6%,14%
COc1ccc(N2CCN(c3oc(-c4ccccc4OC)nc3C#N)CC2)cc1,-31%[inhibitor],-0.1,12,56,-15%,?,-8%
O=C(Nc1ccc(F)cc1)N1CCC(c2nc3c(nnn3Cc3cccc(Cl)c3)c(=O)[nH]2)CC1,?,-1.3,-6,25,-7%,-1.0%,8%
O=C(CSc1nnnn1-c1cccc(F)c1)Nc1nc2ccccc2s1,9%,3.0,2,-2,3%,-1.1%,18%
CC(c1ccccc1)n1c(-c2ccc(C(C)(C)C)cc2)n[nH]c1=S (stereo not drawn),-58%,1.7,-5,-10,10%,/,-16%
